Compound activity as filed in PubChem.
Vaccinia pol inh: blocks vaccinia virus processive DNA synthesis. in vitro processive DNA synthesis, absorbance read-out; active compounds read low; some inactives read as strong as hits. normalized absorbance, % (test concentration not listed). 46,000 tested, 0.94% active;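 active = replicate mean up to 90% and picked by the depositor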;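 note: 100% = median of the test wells of a plate; 100 nL library stock went into each well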
* = called active by the depositor. An excerpt, so the mix of outcomes need not match the whole.

no.	structure	Vaccinia pol inh
1	Cc1ccc(Nc2ncc(C(=O)NCCC3=CCCCC3)c3ccccc23)cc1Cl	95.8
2	COc1ccc(NC2CS(=O)(=O)CC2NCc2ccco2)cc1 (centres undefined)	100.4
3	O=c1[nH]c2cccc(Cl)c2n(CCNc2ncc(C(F)(F)F)cc2Cl)c1=O	84.1
4	Cc1ccc(N2CC(C(=O)NCc3ccccn3)CC2=O)cc1 (centres undefined)	101.0
5	CC1CN(Cc2oc(CO)cc(=O)c2O)CC(C)O1 (centres undefined)	97.0
6	Clc1ccc(-c2cc(-c3ccccc3)n[nH]2)cc1	105.9
7	COc1ccc(/C(O)=C2\C(=O)C(=O)N(CCN(C)C)C2c2ccccc2)cc1Cl (centres undefined)	94.7
8	Cn1cccc1C=Nc1ccc(S(N)(=O)=O)cc1	102.6
9	CC(=O)O[C@H]1C[C@H](O[C@H]2[C@@H](O)C[C@H](O[C@H]3[C@@H](O)C[C@H](O[C@H]4CC[C@@]5(C)C(CCC6C5C[C@@H](O)[C@]5(C)[C@@H](C7=CC(=O)OC7)CC[C@]65O)C4)O[C@@H]3C)O[C@@H]2C)O[C@H](C)[C@H]1O[C@@H]1O[C@H](CO)[C@@H](O)[C@H](O)[C@H]1O (some centres undefined)	99.5
10	CCN1C(=O)C(C(O)c2cc(OC)ccc2OC)SC1=Nc1ccc(C(=O)OC)cc1 (centres undefined)	99.8
11	OC(c1ccc2c(c1)OCO2)c1nccc2ccccc12 (centres undefined)	97.0
12	Fc1ccc(-c2nc3ccc4ccccc4c3c3c2CCC3)cc1	100.1
13	CCOC(=O)c1cc(-c2cccs2)nn1-c1ccc(F)cc1	97.9
14	Cc1ccn2c(NC(=O)C3CCCCC3)c(-c3ccc(F)cc3)nc2c1	104.4
15	CCOC(=O)c1cc(=O)c2cc(Cl)ccc2o1	86.5
16	Cc1onc(-c2ccccc2)c1-c1nc(CSc2nc3ccccc3[nH]2)no1	99.3
17	O=C(Nc1nc(-c2cccs2)cs1)c1ccc2ncsc2c1	95.1
18	COCCN1C(=O)c2oc3ccccc3c(=O)c2C1c1ccc(OC)c(OC)c1 (centres undefined)	105.3
19	CCc1ccccc1NC(=S)N(Cc1cccc(C)c1)c1cccnc1	100.6
20	CC1=CC(=O)C=CC1=N/C(=N\S(=O)(=O)c1ccc(C)cc1)c1ccccc1	100.7
21	FC(F)(F)COc1nc(N2CCCCC2)nc(N2CCN(c3ccccc3)CC2)n1	99.8
22	CC(=O)Oc1ccc2c(c1)CCC1C2CCC2(C)C(=O)CCC12 (centres undefined)	96.4
23	CC(C)(C)c1ccc(C(=O)NCc2ccco2)cc1	99.5
24	O=C(CSc1ccccc1)c1ccccc1Br	95.4
25	CC/C=C\C/C=C\C/C=C\C/C=C\C/C=C\CCCC(=O)O	99.2
26	Clc1ccc(NCn2nnc3ccccc32)cc1	90.7
27	CN1C(=O)CSc2ccc(NC(=O)N3CCN(c4ccccc4)CC3)cc21	103.7
28	O=C(c1ccc(Br)o1)N1CCN(c2ccccc2F)CC1	96.7
29	Cc1cccc2nc(-c3cccc(NC(=O)C(C)C)c3)cn12	100.4
30	CC1(C)CC(=O)C=C(OC(=O)c2ccc(C(C)(C)C)cc2)C1	97.5
31	COc1ccccc1C1SCCN1S(=O)(=O)c1ccccc1 (centres undefined)	100.2
32	CCc1ccc(NC(=O)CCCn2c(=O)c3cccn3c3ccccc32)cc1	107.9
33	CCOC(=O)c1nn(-c2ccccc2)c(C#N)c1NC(=O)c1nn(CC)cc1Br	100.2
34	O=C(O)C(Cc1ccccc1)NCc1c(O)ccc2c3c(c(=O)oc12)CCCC3 (centres undefined)	96.8
35	Cc1ccc(N=C2N=C(N)c3ccccc32)cc1Cl	104.9
36	CCCc1nc2c(o1)N(C(=O)OCC)C(N)=C(C#N)C21CCNCC1	99.9
37	COc1ccc(CCNC(=O)C(C(C)C)N2C(=O)c3ccccc3C2=O)cc1 (centres undefined)	99.5
38	C=CCn1c(CCCNC(C)=O)nc2ccccc21	101.9
39	Cc1cc(C)nc(N/C(=N\S(=O)(=O)Cc2ccccc2)Nc2ccccc2Br)n1	100.0
40	COc1ccc(-n2cnc3cc(C(=O)N4CCC5(CC4)OCCO5)ccc32)cc1	92.6
41	c1ccc(-c2ccnc3nc(-n4cccc4)nn23)nc1	107.4
42	CC(C)(C#N)N1CCN(c2ccccc2)CC1	112.2
43	CCOC(=O)C1=Cc2sc3c(c2CS1)CCCC3	103.0
44	COc1ccc(Cn2nnc3c(=O)[nH]c(C4CCCN(S(=O)(=O)c5ccccc5)C4)nc32)cc1 (centres undefined)	102.4
45	O=C(O)Cc1cn(-c2ccccc2)nc1-c1ccccc1	100.4
46	CC(=O)N/C(=C/c1ccccc1)C(=O)Nc1ccc(C)c(C)c1	100.5
47	Cc1ccc2nc(-c3ccc(O)c(O)c3)cn2c1	99.7
48	CCN(c1ccccc1)S(=O)(=O)c1ccc(CC(C)C)cc1	89.6
49	COc1ccc(CNC(C)=O)cc1	99.5
50	CCOc1ccc(-n2cc(-c3ccccc3)c3c(SCC)ncnc32)cc1	98.1
51	N#C/C(=C\N1CCC(n2cccc2)CC1)S(=O)(=O)c1ccccn1	94.5
52	O=C(O)c1cc2cc(Br)cc(Br)c2oc1=O	107.5
53	NC(=O)Cc1cc2ccccc2n1Cc1ccccc1	102.9
54	COC(=O)c1ccc2c(c1)N(C)S(=O)(=O)/C(=C\Nc1ccc(Cl)cc1)C2=O	97.6
55	FC(F)(F)c1ccc2sc(=S)[nH]c2c1	99.0
56	N#CC(Nc1ccc(Cl)cc1Cl)c1ccccc1 (centres undefined)	98.8
57	COC(=O)c1cn(Cc2ccc(C#N)cc2)c2ccccc12	105.2
58	O=C(/C=C/c1ccccc1)Oc1ccc(-c2cnc3ccccc3n2)cc1	100.0
59	NC(=O)C(Cc1ccccc1)NC(=O)c1ccc(Cl)cc1Cl (centres undefined)	98.6
60	CCC(C)C1=NN(C(=O)c2ccccc2)C(O)(C(=O)OC)C1 (centres undefined)	99.6

Part of the list above, as labelled records:
[51] N#C/C(=C\N1CCC(n2cccc2)CC1)S(=O)(=O)c1ccccn1
  Vaccinia pol inh = 94.5

[52] O=C(O)c1cc2cc(Br)cc(Br)c2oc1=O
  Vaccinia pol inh = 107.5

[53] NC(=O)Cc1cc2ccccc2n1Cc1ccccc1
  Vaccinia pol inh = 102.9

[54] COC(=O)c1ccc2c(c1)N(C)S(=O)(=O)/C(=C\Nc1ccc(Cl)cc1)C2=O
  Vaccinia pol inh = 97.6

Next part:
no.	structure	Vaccinia pol inh
61	Cc1ccc(N(Cc2ccc(C(=O)N3CCOCC3)cc2)S(C)(=O)=O)cc1C	100.5
62	CCOC(=O)c1cnc2c(ccc3ccccc32)c1NCCOC(=O)c1cccnc1	100.3
63	O=C1/C(=C/c2cccs2)SC(=S)N1Cc1ccccc1	99.5
64	S=C(Nc1ccccc1)N1CCCCC1	99.2
65	O=C(Cc1ccccc1)c1c[nH]c(C(=O)NC2CCCC2)c1	87.0
66	c1ccc2c(c1)CCN2Cc1csc2c1CCCC2	93.1
67	Cc1cc(C(=O)O)c(C)o1	101.5
68	Cc1cccc(NC(=O)CC(=O)c2ccccc2)c1	104.8
69	COc1ccc(-c2cn3cc(Cl)ccc3n2)cc1OC	95.6
70	O=C(O)c1ccc(CSCc2c(F)cccc2Cl)o1	93.6
71	CSc1ncccc1C(=O)OCc1ccccc1	88.6
72	CC(=O)OCC1=C(C(=O)O)N2C(=O)[C@@H](NC(=O)CCCC(N)C(=O)O)C2SC1 (some centres undefined)	87.9
73	S=C(/N=C(\Nc1ccccc1)c1ccccc1)Nc1ccccc1	98.6
74	CNC(=S)Nc1ccc(N2CCN(c3ccc(C(F)(F)F)cn3)CC2)nc1	101.3
75	CC(CCc1ccccc1)NC(=O)c1ccc2ccccc2c1 (centres undefined)	104.5
76	O=C1C(Nc2ccc(O)cc2)=C(n2nnc3ccccc32)C(=O)c2ccccc21	100.6
77	CCOC(=O)c1oc2ccccc2c1C	96.9
78	CC1=C(C(N)=O)C(c2cccs2)NC(=S)N1 (centres undefined)	100.3
79	CNC(=O)Nc1ccccc1NC1=C(C(=O)OC)CSC1	101.5
80	Cc1sc(NC(=O)Cn2nc(C(F)(F)F)cc2C)c(C(N)=O)c1C	100.1
81	COc1ccc(C(=O)Nc2nc3c(C)cccc3s2)cc1OC	95.4
82	c1ccc2c(N3CCOCC3)c3c(nc2c1)CCC3	99.4
83	Cc1cccc(Cn2cc(C(=O)c3ccc(C)c(C)c3)c(=O)c3cc4c(cc32)OCO4)c1	98.5
84	Cc1ccc(S(=O)(=O)CC2CSc3nnc(C)c(=O)n32)cc1 (centres undefined)	106.1
85	Cc1ccc(NC(=O)CC(NC(C)C)C(=O)O)cc1 (centres undefined)	99.2
86	Cc1c(C(=O)CC#N)sc2ccc(Cl)cc12	79.0
87	CC1CCCC(C)N1C(=O)COC(=O)C12CC3CC(CC(C3)C1)C2 (centres undefined)	104.9
88	CCCc1cc(=O)[nH]c(/N=C(\N)Nc2cccc(C)c2)n1	100.6
89	CC(C)OC(=O)c1cc2cc(Br)ccc2oc1=O	100.2
90	O=C(NC(=O)c1ccccc1)OC1CCS(=O)(=O)C1 (centres undefined)	100.1
91	CNC(=O)c1c2c(nc3ccc(Br)cc13)CCCC2	103.2
92	O=C(c1ccccc1)N1CCn2c1nc1ccccc12	105.0
93	O=C(COC(=O)c1cccs1)Nc1ccccc1C(F)(F)F	94.7
94	CC(=O)Nc1cccc(N=Cc2cc(I)cc(C)c2O)c1	91.2
95	N#C/C(=N\O)C(=O)c1ccco1	107.1
96	CCc1sc2sncc2c1Br	81.0*
97	O=C(Cc1ccccc1)c1ccccc1C(=O)NCc1ccc(F)cc1	97.9
98	CC(C)(C)C(=O)NS(=O)(=O)c1ccccc1	98.0
99	O=C(O)c1ccc(CNCc2cccc(Oc3ccccc3)c2)cc1	104.5
100	COC(=O)c1ccc(Oc2ccc(Cl)cc2Cl)o1	98.3
101	CCOc1ccc(-c2cc(CCCC(=O)NCCc3ccccc3)no2)cc1	103.0
102	COc1cc(NC(=O)C(C)(C)C)ccc1Br	99.6
103	COC(=O)Cn1c(=NC(C)=O)sc2cc(Br)ccc21	100.0
104	O=C1OC(NS(=O)(=O)c2ccc(Cl)cc2)c2ccccc21 (centres undefined)	110.3
105	c1ccc2c3c([nH]c2c1)C1(CCNCC1)NCC3	79.5
106	c1cn2cc(Cc3nnc4n3CCC4)nc2s1	104.1
107	O=S(=O)(c1ccc(-c2ccccc2)cc1)N1CCOCC1	87.9
108	CC1(C)C2CC=C(/C=N/n3cnnc3)C1C2 (centres undefined)	100.9
109	O=C(COc1ccc(C2N(Cc3ccccc3)CCN2Cc2ccccc2)cc1)N1CCOCC1	100.0
110	O=C(O)COc1ccc(/C=C2/NC(=S)NC2=O)cc1	100.3
111	O=C(CSc1nnc(COc2ccc(Cl)cc2)o1)N1CCc2ccccc21	101.9
112	CC1(C)CC(C(=O)COc2ccc3ccc(=O)oc3c2)CCO1 (centres undefined)	95.8
113	c1ccc(-c2nc(C3CCCCC3)no2)cc1	105.7
114	COC(=O)C12CC3CC(CC(Br)(C3)C1)C2	101.8
115	CCN1CCN(C(c2cccs2)C(C)NC(=O)Cc2ccc(F)cc2)CC1 (centres undefined)	100.1
116	Nc1nc2ccc(Oc3ccccc3)cc2s1	91.2
117	CCN1CCCC(OC(=O)C(c2ccccc2)c2ccccc2)C1 (centres undefined)	94.1
118	O=C(O)CCC(=O)N1CCN(c2nc(-c3ccccc3)c3cc(Br)ccc3n2)CC1	98.0
119	CCC(C)NC(=O)c1ccc(N2CCCC2=O)cc1 (centres undefined)	96.2
120	Cc1nc(-c2ccc(S(=O)(=O)NCCN(C)C)s2)cs1	92.3

Next results:
no.	structure	Vaccinia pol inh
121	NC(=Nc1ccccc1)C(F)(F)F	100.5
122	S=C(Nc1ccc(Cl)cc1)N1CCN=C1Nc1ccc(Cl)cc1	98.9
123	O=C1OC2C(C(=O)O)Sc3c(sc(=O)n3-c3ccccc3)C2c2cc(Br)ccc21 (centres undefined)	99.9
124	O=C(CSc1nc2ccccc2[nH]1)NO	111.4
125	Cc1csc(/C=C2\CCc3c(cnc4ccc5ccccc5c34)C2=O)c1	100.1
126	O=C(O)C1C2CCC(C2)C1C(=O)O (centres undefined)	97.3
127	CCOC(=O)c1c(NC(=O)c2ccc(OC)cc2)sc2c1CC(C)CC2 (centres undefined)	101.0
128	Cn1cc(CCC(=O)NCc2ccccc2)c2ccccc21	102.1
129	Cc1cccc(N=CC=C2OC(C)(C)C(C)(C)O2)c1	100.1
130	CCN(CC)c1nc2c(C)cccn2c(=O)c1/C=N/O	99.9
131	Cc1cc2cc(CNS(C)(=O)=O)ccc2n1C	97.2
132	Cc1cc(SCc2ncon2)c(Cl)cc1Cl	93.9
133	Cc1ccc(C(=O)OCCOc2ccc(Br)cc2)cc1	101.4
134	CC(NS(C)(=O)=O)C(c1cccs1)N1CCN(C)CC1 (centres undefined)	100.5
135	O=C(CSc1nccc(-c2csc(COc3ccccc3Cl)n2)n1)c1ccccc1	99.4
136	O=C1CN(C(=O)Cc2ccc(F)cc2)C(c2ccc(F)cc2)c2cc(F)ccc2N1 (centres undefined)	109.3
137	O=C(Oc1ccccc1N1CCOCC1)c1cccnc1Sc1ccc(Cl)cc1	92.6
138	Cc1ccccc1OCC(=O)Nc1ccccc1Nc1ccccc1	105.9
139	CC(C)(CN1CCN(C(c2ccccc2)c2ccccc2)CC1)NS(=O)(=O)c1ccccc1	100.2
140	O=C1C(Cc2c[nH]c3ccccc23)NC(=S)N1c1ccccc1Cl (centres undefined)	95.0
141	CN(C)/C=C/C(=O)c1cc(OCC(F)(F)F)ccc1OCC(F)(F)F	84.0
142	O=C1c2c(O)cccc2Cc2cccc(O)c21	97.9
143	CCOc1ccc2c(-c3ccccc3)cc(=O)oc2c1	100.0
144	COc1ccc(N2Cc3cccc(C(=O)NCCC4=CCCCC4)c3C2=O)cc1	86.0
145	CCOC(=O)c1c(NC(=O)c2cc3ccccc3c(=O)o2)sc2c1CCCCCC2	99.3
